Bioassay records (PubChem)
CSC inhib: blocks cancer stem cells | cancer stem cell-like cells viability, luminescence | inhibition, % at 7.5 µM | 300,000 compounds, 1.1% hits | AID 2717;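 active = mean at 75% or more and at least half the replicates too; tested in HMLE shEcad cells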;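 note: 0% = median of negative and 100% = median of positive control wells; the first replicate is given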
MT1-MMP act inh: MT1-MMP (human) activation inhibition | HT1080 RFP-PRO-GFP cells, GFP/RFP ratio fluorescence, overnight; percent of plate control window, DMSO zero | P50281 | 360,000 compounds, 0.061% hits | GFP/RFP ratio change, % at 20 µM;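 active = GFP/RFP ratio change of at least 30% with cell ATP level not reduced by more than half and red fluorescence within 50% of control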; note: strong numbers were not always called active
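Compound: 20 µM single dose, 1% DMSO / System: HT1080 RFP-PRO-GFP cells / Controls: DMSO and RFP-L50D-GFP cell wells / Read-out basis: GFP/RFP fluorescence ratio / Schedule: overnight compound exposure at 37 °C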
Rce1 inh: blocks yeast Ras-converting enzyme | Q03530 | yeast membranes, quenched prenylated peptide cleavage fluorescence | calls only | 290,000 compounds, 0.27% hits | AID 2563;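 active = fall in fluorescence gain of 50% or more versus controls, with final raw signal at or below 3038400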;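 note: plate controls were neutral control wells for no effect and wells lacking membranes for full effect; tested at 10 µM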
Target sequence (Q03530 whole entry, looked up): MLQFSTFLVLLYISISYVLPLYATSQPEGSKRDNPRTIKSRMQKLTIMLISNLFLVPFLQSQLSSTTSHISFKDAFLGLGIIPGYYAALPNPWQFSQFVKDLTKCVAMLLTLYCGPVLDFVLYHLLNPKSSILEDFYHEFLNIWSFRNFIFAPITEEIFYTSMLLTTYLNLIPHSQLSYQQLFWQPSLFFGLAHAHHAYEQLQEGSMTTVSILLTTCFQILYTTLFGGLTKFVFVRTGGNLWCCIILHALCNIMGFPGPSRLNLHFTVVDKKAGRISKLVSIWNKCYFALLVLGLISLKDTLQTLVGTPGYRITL
Env fusion inh: HIV envelope-mediated fusion inhibition. HeLa-JRFL Env/CEM21 cell fusion, luciferase. 360,000 compounds, 1.1% hits. inhibition, % at 12.3 µM;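 active = mean replicate inhibition score of at least 50 and every replicate individually at or above 50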;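 note: 0% = plate neutral controls and 100% = maraviroc near 300 nM; one replicate is shown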
PABP FP inh: PABP-poly(A) binding inhibition. P11940. PABP-poly(A) RNA binding, fluorescence polarization. inhibition, % at 35 µM. 290,000 compounds, 1% hits. AID 2014;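 active = 50% or more with normal probe brightness, or confirmed in later tests; about a fifth of its hits are not listed in these tables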;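 note: calls also rest on retests at 20 µM and on dose response follow-up; controls were probe without protein and protein plus probe with vehicle; some compounds called inactive have numbers as strong as hits; many hits fall short of the cut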
Target sequence (P11940 whole entry, looked up): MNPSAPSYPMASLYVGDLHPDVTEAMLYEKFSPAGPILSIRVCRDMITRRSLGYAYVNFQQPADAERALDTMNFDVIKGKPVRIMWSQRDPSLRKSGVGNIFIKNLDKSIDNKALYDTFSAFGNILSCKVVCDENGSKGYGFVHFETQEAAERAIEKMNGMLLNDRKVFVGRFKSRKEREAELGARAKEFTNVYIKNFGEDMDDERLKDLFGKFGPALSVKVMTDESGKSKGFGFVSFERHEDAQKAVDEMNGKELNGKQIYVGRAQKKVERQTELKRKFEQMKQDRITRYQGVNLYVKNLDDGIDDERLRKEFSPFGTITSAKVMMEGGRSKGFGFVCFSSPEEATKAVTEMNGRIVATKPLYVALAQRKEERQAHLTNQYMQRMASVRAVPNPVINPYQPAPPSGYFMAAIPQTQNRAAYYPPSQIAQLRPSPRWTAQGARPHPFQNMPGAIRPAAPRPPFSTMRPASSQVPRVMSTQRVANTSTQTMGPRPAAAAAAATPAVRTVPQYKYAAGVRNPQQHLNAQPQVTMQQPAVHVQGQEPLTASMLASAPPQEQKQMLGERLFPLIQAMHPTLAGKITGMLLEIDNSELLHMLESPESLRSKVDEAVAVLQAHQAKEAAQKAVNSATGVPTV
eIF4H inh: inhibitors of RNA binding by human eIF4H; eIF4H fluorescence polarization binding assay; inhibition, % at 35 µM; 290,000 compounds, 0.94% hits;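 active = 50% or more with normal probe brightness, or confirmed in later tests; about a fifth of its hits are not listed in these tables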;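 note: calls also rest on retests at 20 µM and on dose response follow-up; 0% = protein and probe with vehicle and 100% = probe without protein; strong numbers were not always called active; many hits fall short of the cut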
UUG fidelity: alters start codon recognition fidelity in yeast; S. cerevisiae UUG-firefly luciferase reporter, luminescence/redox ratio; activity score, % at 18.7 µM; 350,000 compounds, 0.13% hits; AID 602363;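 active = replicate mean at a twofold rise or more, about +100% in these data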;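 note: firefly luciferase made from a UUG start codon reports start codon fidelity; reporter light over untreated wells divided by growth signal over untreated wells; some hits fall short of that in this replicate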
eIF4H inh retest: also measured in eIF4H inh; calls as there; inhibition, %; compound at 20 µM; confirmation average;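 mean of two retest wells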
PABP FP inh retest: further read-out of PABP FP inh, marked with its call; inhibition, %; compound at 20 µM; confirmation repeats;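 mean of two retest wells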
MT1-MMP act inh RFP: second read-out of MT1-MMP act inh, no call of its own (marks repeat the call); RFP signal change, %; measured here: RFP expression control read;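 0 = vehicle wells; hits needed this value within 50% of zero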
* hit, by the source's call; i = inactive; . = no result given; & = joins results of further samples. A portion of the library; count on the stated rates, not on these rows.

The opening six entries as a preview:
SMILES	CSC inhib	MT1-MMP act inh	MT1-MMP act inh RFP	Rce1 inh	Env fusion inh	PABP FP inh	eIF4H inh	UUG fidelity	others
CCCn1nnnc1SCC(=O)N1CCN(C(=O)c2ccco2)CC1	-10	-5	1	i	-70	7	1	-15
CC(=O)c1cccc(NC(=O)C2CC(c3ccc(F)cc3)=NO2)c1 (stereo unspecified)	-4	2	4	i	-24	-4	2	5
CCOC(=O)c1[nH]c(C)c(/C(O)=C2\C(=O)C(=O)N(CCN(C)C)C2c2ccncc2)c1C (stereo unspecified)	.	-7	-6	i	.	-1	-11	-25
Cc1ccc(-c2noc(CC(c3ccccc3)c3ccccc3)n2)cc1	16	-8	-4	i	19	0	16	.
Cc1nn(C)cc1CNC(=O)c1cccc(Br)c1	-4	-2	-10	i	-44	3	-1	-7
COC(=O)[C@@H]1CCCN1C(=O)c1cc(COc2cccc3cccnc23)on1	5	-3	0	i	8	10	4	0

The whole of this part, previewed entries included:
SMILES	CSC inhib	MT1-MMP act inh	MT1-MMP act inh RFP	Rce1 inh	Env fusion inh	PABP FP inh	eIF4H inh	UUG fidelity	others
CCCn1nnnc1SCC(=O)N1CCN(C(=O)c2ccco2)CC1	-10	-5	1	i	-70	7	1	-15
CC(=O)c1cccc(NC(=O)C2CC(c3ccc(F)cc3)=NO2)c1 (stereo unspecified)	-4	2	4	i	-24	-4	2	5
CCOC(=O)c1[nH]c(C)c(/C(O)=C2\C(=O)C(=O)N(CCN(C)C)C2c2ccncc2)c1C (stereo unspecified)	.	-7	-6	i	.	-1	-11	-25
Cc1ccc(-c2noc(CC(c3ccccc3)c3ccccc3)n2)cc1	16	-8	-4	i	19	0	16	.
Cc1nn(C)cc1CNC(=O)c1cccc(Br)c1	-4	-2	-10	i	-44	3	-1	-7
COC(=O)[C@@H]1CCCN1C(=O)c1cc(COc2cccc3cccnc23)on1	5	-3	0	i	8	10	4	0
COc1ccc(N2CCN(c3ncnc4scc(-c5ccc(F)cc5)c34)CC2)cc1	59	-4	-18	i	16	-5	-5	-16
Cc1ccccc1NC(=O)CCN1CCCCCC1	-6	-3	2	i	-42	.	.	-11
CC(=O)c1c(C)[nH]c(C(=O)Nc2ccc(C)cn2)c1C	-7	-9	4	i	61	2	8	-78
CC1=C(C(=O)N(C)C)CC(CC(=O)NCCN2CCOCC2)C(=O)N1CCC1=CCCCC1 (stereo unspecified)	.	-1	3	.	-34	.	.	-14
Cn1ncc2c(NCc3ccccc3)nc(NCCCO)nc21	0	-1	0	i	14	6	1	-12
Nc1cc(N)nc(SCC(=O)NCC2CCCO2)n1 (stereo unspecified)	-7	6	3	i	-2	-1	-3	-16
COc1ccccc1NC(=O)Nc1nc(CC(=O)Nc2ccc(F)cc2)cs1	-14	14	-6	i	-7	.	.	24
CC(=O)N1CCN(c2ccc(NC(=O)c3cccc([N+](=O)[O-])c3)cc2)CC1	-4	-1	0	i	-58	6	-4	-15
CCOC(=O)N1CCN(c2ccc(F)cc2[N+](=O)[O-])CC1	-3	2	4	i	.	0	-4	-11
CCc1ccccc1NC(=O)C1=CC(c2ccc(OC)c(OC)c2)=NS(=O)(=O)N1C	-10	-1	-4	i	-3	-16	5	0
CCN(CC)S(=O)(=O)c1cc(C(=O)Oc2cccc(-c3cnc4ccccc4n3)c2)ccc1OC	14	-4	-5	i	-31	1	-3	.
Cc1cccc(NC(=O)Cn2nnc(-c3cccs3)n2)c1C	-10	-2	-3	i	-9	2	-6	-14
O=C(CN1c2ccccc2Sc2ccccc21)N/N=C/c1ccc([N+](=O)[O-])cc1	32	.	.	i	-2	-4	5	-5
Cc1ccc(/C=N\NC(=O)C2COc3cc4ccccc4cc3O2)o1 (stereo unspecified)	-6	-1	3	i	.	-9	-3	-6
Cc1ccc(SCCOCCN2CC(C)OC(C)C2)cc1 (stereo unspecified)	44	2	2	i	-19	-3	-10	-17
COc1ccccc1C(=O)COC(=O)CNC(=O)c1ccc(Br)o1	-4	-1	0	i	-45	.	.	-9
CCC(=O)Nc1cccc(C2=NOC3(C2)C[C@@H](C(N)=O)N(C(=O)COc2ccc(Cl)cc2)C3)c1 (stereo partly specified)	-5	3	0	i	-9	9	-19	-1
CCSc1ccc([C@@H]2[C@@H]3C(=O)N(CC)C(=O)[C@@H]3[C@]3(C(=O)OC)CCCCN23)cc1	-1	-1	-3	i	63*	.	.	-16
COc1cccc(C(=O)OCC(=O)Nc2cc(C)on2)c1OC	-16	-1	-1	.	.	.	.	-15

(next part)
SMILES	CSC inhib	MT1-MMP act inh	MT1-MMP act inh RFP	Rce1 inh	Env fusion inh	PABP FP inh	eIF4H inh	UUG fidelity	others
CC1(C)N=C(/C=N/O)C=[N+]1[O-]	-10	-1	3	i	.	-2	1	-10
c1ccc(-c2cnc(-c3ccccc3)nc2)cc1	6	-1	-1	.	-209	16	-8	-17
CCOc1cccc(/C(O)=C2/C(=O)C(=O)N(CCN3CCOCC3)C2c2cccnc2)c1 (stereo unspecified)	-10	-6	-4	i	-24	8	6	13
CC(NC(=O)c1cccc(OC2CCN(C(=O)C3CC3)CC2)c1)c1ccc(F)cc1 (stereo unspecified)	7	2	-8	i	5	1	-4	-3
O=C(NCc1ccccc1)c1ccccc1OCC(=O)N1CCCCC1	0	-1	-4	i	8	-1	-2	-15
Cc1noc(C)c1S(=O)(=O)N1CCC(C(=O)N2CCC(N3CCCCC3)CC2)CC1	4	-4	6	i	-7	-8	0	-16
O=C(NC(=S)NCCc1ccccc1)c1ccco1	-15	5	5	i	-50	-1	1	-17
O=C(Nc1ccccc1)Nc1ccc(F)c([N+](=O)[O-])c1	20	1	-4	i	18	-2	-14	.
O=S(=O)(Nc1ccncc1)c1ccccc1	.	2	2	i	15	7	-6	-23
CCCCOc1ccc(CNn2c(C)nc3ccccc3c2=O)cc1	.	6	-9	i	-7	-9	-6	.
OC(c1ccccc1)C(NCc1ccccc1)c1ccccc1 (stereo unspecified)	.	1	0	.	-3	.	.	-19
COc1ccc(NC(=O)CCN2CCCCCC2)c(OC)c1	-21	1	2	i	.	1	0	.
CCS(=O)(=O)Nc1ccc(C2=NN(C(=S)Nc3ccccc3)C(c3ccco3)C2)cc1 (stereo unspecified)	12	1	-3	i	-245	14	-4	.
CC(=O)Nc1ccccc1OCC(=O)NC(C)c1ccc(F)cc1 (stereo unspecified)	-8	3	0	i	5	-12	-14	.
COCCCn1c(SCC(=O)Nc2cccc(C(=O)OC)c2)nnc1-c1ccncc1	-19	0	2	i	7	1	-3	-14
COc1cccc(S(=O)(=O)N(C)C[C@@H]2OCc3cnnn3CCCC(=O)N([C@H](C)CO)C[C@H]2C)c1	.	2	3	.	-7	.	.	3&19
CCCS(=O)(=O)NC(=O)C1(C)CCN(C(=O)c2ccnc(Cl)c2)C1 (stereo unspecified)	.	2	5	.	-4	.	.	-13
CCOc1ccccc1NC(=O)C(=O)CC(=O)c1cccc(OC)c1	3	2	5	i	19	-1	3	0
COc1ccccc1Sc1nc(-c2ccccc2)ncc1OC	-4	3	-2	i	26	14	-17	.
COc1cc(CN2CCN(C(=O)c3cccc4ccccc34)CC2)cc(OC)c1OC	-3	3	-6	i	-24	19	-4	3
C=CCNC(=O)c1csc(-c2ccccc2)n1	0	5	-12	i	-18	4	-5	-9
Cc1cc(C)c(S(=O)(=O)NCc2ccc3c(c2)OCO3)c(C)c1	-1	0	0	i	7	10	3	-27
O=C(CSc1ccc(Cl)cc1)N1N=CCC1c1ccccc1 (stereo unspecified)	12	-2	-6	i	30	12	-5	.
C[C@@H]1CN([C@H](C)CO)C(=O)CCCn2nncc2CO[C@H]1CN(C)S(=O)(=O)c1cccc(C#N)c1	.	-2	-1	.	-3	.	.	12&-1
COc1ccc(C(=S)N2CCOCC2)cc1OC(=O)c1cc([N+](=O)[O-])c(C)c([N+](=O)[O-])c1	0	3	-1	i	21	2	7	-18

A draw from above in order of SMILES length, rising:
SMILES	CSC inhib	MT1-MMP act inh	MT1-MMP act inh RFP	Rce1 inh	Env fusion inh	PABP FP inh	eIF4H inh	UUG fidelity	others
O=C(NC(=S)NCCc1ccccc1)c1ccco1	-15	5	5	i	-50	-1	1	-17
COc1ccc(C(=S)N2CCOCC2)cc1OC(=O)c1cc([N+](=O)[O-])c(C)c([N+](=O)[O-])c1	0	3	-1	i	21	2	7	-18
C[C@@H]1CN([C@H](C)CO)C(=O)CCCn2nncc2CO[C@H]1CN(C)S(=O)(=O)c1cccc(C#N)c1	.	-2	-1	.	-3	.	.	12&-1

Carrying on.
SMILES	CSC inhib	MT1-MMP act inh	MT1-MMP act inh RFP	Rce1 inh	Env fusion inh	PABP FP inh	eIF4H inh	UUG fidelity	others
CCOC(=O)N1CCN(Cc2nc3cc(NC(=O)c4cccs4)ccc3n2C)CC1	9	-2	-11	i	-3	-10	-8	-9
CCOC(=O)c1c(C)[nH]c(C(=O)COC(=O)CNC(=O)c2ccc(Cl)cc2)c1C	-3	4	1	i	-28	-19	-14	.
COc1cccc(NC(=O)CSc2nc3c(c(=O)n2C)SC(C)C3)c1 (stereo unspecified)	-7	2	-3	i	8	15	1	-6
CCN(CC(O)COCc1ccc(Cl)cc1)C1CCCCC1 (stereo unspecified)	4	-2	3	i	1	-6	0	.
Cc1ccc(OCc2ccccc2Br)c([N+](=O)[O-])n1	-6	3	-4	.	-13	2	-2	5
CCc1ccccc1N(C(=O)c1ccco1)C(C(=O)NC1CCCC1)c1cccnc1 (stereo unspecified)	-18	0	1	.	-2	-11	0	-15
Cc1cc(Cl)ccc1NC(=S)NCc1ccc(F)cc1	2	2	-1	i	12	-3	-4	-26
Cc1cc(C(=O)OCC(=O)N2CCc3ccccc32)c(C)o1	-13	2	2	i	.	-3	2	-4
COc1ccc(-n2c(=O)cc(N3CCc4ccccc43)[nH]c2=O)cc1	-6	2	-1	i	.	9	5	-10
CC(=O)N1CCC(C(=O)OCc2ccc(Cl)cc2)(c2ccccc2)CC1	0	-3	-10	i	1	23	66	-4	eIF4H inh retest=45;PABP FP inh retest=31
COc1ccc(Cl)cc1NC(=O)C1CCN(C(=O)C2CC(=O)N(c3ccc(C)cc3)C2)CC1 (stereo unspecified)	-35	-1	-3	i	8	0	-8	0
O=C1c2ccccc2C(=O)N1COc1ccc(S(=O)(=O)N2CCOCC2)cc1[N+](=O)[O-]	-5	-1	1	i	4	6	0	-1
O=C(CN1C(=O)NC2(CCc3ccccc32)C1=O)c1cccs1 (stereo unspecified)	5	-3	-1	.	-16	.	.	-16
Cc1ccc2cccc(SCC(=O)Nc3ccc(F)cc3)c2n1	-2	-1	-5	i	-6	12	-8	-10
CCCC(=O)Nc1nc(C)c(-c2csc(Nc3cc(OC)ccc3OC)n2)s1	42	-2	-3	i	-20	14	10	-15
O=S(=O)(NCCS(=O)(=O)N1CCN(c2ccccc2)CC1)c1ccc(F)cc1	-2	3	1	i	.	.	.	.
CCOC(=O)Nc1ccc(NS(=O)(=O)c2ccc(C)cc2)cc1	11	-2	-4	i	-233	6	4	-8

No new results follow: an excerpt of the list.
SMILES	CSC inhib	MT1-MMP act inh	MT1-MMP act inh RFP	Rce1 inh	Env fusion inh	PABP FP inh	eIF4H inh	UUG fidelity	others
O=C1c2ccccc2C(=O)N1COc1ccc(S(=O)(=O)N2CCOCC2)cc1[N+](=O)[O-]	-5	-1	1	i	4	6	0	-1
O=C(CN1C(=O)NC2(CCc3ccccc32)C1=O)c1cccs1 (stereo unspecified)	5	-3	-1	.	-16	.	.	-16
Cc1ccc2cccc(SCC(=O)Nc3ccc(F)cc3)c2n1	-2	-1	-5	i	-6	12	-8	-10
CCCC(=O)Nc1nc(C)c(-c2csc(Nc3cc(OC)ccc3OC)n2)s1	42	-2	-3	i	-20	14	10	-15
O=S(=O)(NCCS(=O)(=O)N1CCN(c2ccccc2)CC1)c1ccc(F)cc1	-2	3	1	i	.	.	.	.
CCOC(=O)Nc1ccc(NS(=O)(=O)c2ccc(C)cc2)cc1	11	-2	-4	i	-233	6	4	-8
